Screening data: PubChem, several laboratories
ugtP null kill = growth inhibition of ugtP-null S. aureus, primary screen, RN4220 ugtP deletion, OD600; 16 h; some inactives read as strong as hits; growth inhibition, % (concentration not given with the values); 330,000 compounds, 0.54% hits;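 active = z-score under -3 and OD600 up to 0.15 on both plates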;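 note: plate controls were untreated wells for no effect and antibiotic for full effect; wells of about 80 µL received 100 nL stock; the first replicate is given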
Mtb hypoxia rep = PubChem AID 1159583; M. tuberculosis hypoxia-regulated fluorescent reporter, fluorescence; 300,000 compounds, 0.1% hits; fluorescence inhibition, % (concentration not given with the values);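 active = 35 to 45% if threefold the growth effect, above 45% if 1.5-fold the growth effect; inactive = the rest, general growth blockers included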;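 note: wells of about 50 µL received 100 nL stock; 0% = vehicle wells and 100% = reference inhibitor wells; whole bacteria with a GFP reporter of the hypoxia response; strong numbers were not always called active; many hits fall short of the cut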
Bead autofluor = compound fluorescence in toxin protease inhibitor counterscreen; fluorescence intensity (no concentration beside the values); 360,000 compounds, 3.1% hits; compound autofluorescence counterscreen, microsphere flow cytometry; hits give high values;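 active = at least 3 SD above the mean of all compounds, about 16000 in these data; inconclusive = too few beads counted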;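 note: 100 nL of 1 mM stock went into each well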
BJeLR viability = MLPCN primary cell-based screen for lethality selective to Ras in HRASV12 cells; BJeLR (HRASV12) viability, CellTiter-Glo ATP luminescence, 48 h; reference of the scale not given here; 300,000 compounds, 0.17% hits; inhibition, % (concentration not given with the values);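 active = replicate mean above 50%; inconclusive = above 50% but judged a plate artefact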;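 note: 50 nL library stock added to about 25 µL; numbers are from one replicate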
Sa RN4220 lethal = growth inhibition of S. aureus RN4220, primary screen, OD600 | inhibition, % (concentration not given with the values) | AID 1259311, 2017 | 16 h | 330,000 compounds, 0.33% hits;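 active = z-score of -3 or lower and OD600 up to 0.18 on both plates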;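 note: plate controls were untreated cells for no effect and reference antibiotic for full effect; stock transfer was 100 nL into about 80 µL; one replicate is shown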
PrP UTR inh = inhibition of PrP 5' UTR reporter expression; AID 488862, 2010; cell-based PrP 5' UTR mRNA reporter, plate reader; inhibition, % (concentration not given with the values); 340,000 compounds, 0.35% hits;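 active = every replicate at 50% or more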;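 note: 0 = median of the neutral control wells; tested in H4 reporter cells; numbers are from one replicate; inactives centre near -14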
Mtb hypoxia rep growth = second read-out of Mtb hypoxia rep, no call of its own (marks repeat the call); growth inhibition, %; measured here: M. tuberculosis growth (absorbance);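 0% = vehicle and 100% = reference antibiotic; read after six days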
Starred values were filed as active, the others as inactive; ? = inconclusive; nt = not tested or not shown. No enrichment for hits. Share with any hit: about 4%.

SMILES	ugtP null kill	Mtb hypoxia rep	Mtb hypoxia rep growth	Bead autofluor	BJeLR viability	Sa RN4220 lethal	PrP UTR inh
CCOc1ccc(OCCOCCN2CCc3ccccc3C2)cc1	10	17	11	9438	-7	4.9	-30
C=COCCNC(=O)Nc1ccc(Cl)cc1Cl	-12	7	6	2946	-1	-13	-25
O=C(COc1ccc([N+](=O)[O-])cc1Cl)NCC1CCCO1 (stereo not drawn)	4	11	5	4430	3	2.1	-34
COc1ccc(N2C(=O)CC(C#N)=C2N)cc1	4	-5	3	4744	-4	0.5	-17
Oc1c(C(c2ccccn2)N2CCC(Cc3ccccc3)CC2)cc(Cl)c2cccnc12 (stereo not drawn)	88*	8	-1	nt	14	93*	nt
O=C(NCCN1CCOCC1)Nc1ccc(Cl)cc1Cl	14	11	5	8212	0	4.7	-16
CCN(CC(=O)NCc1ccc(Cl)cc1)Cc1cc(=O)n2ccsc2n1	0	5	-6	4081	nt	-0.8	-19
Cc1ccc(NC(=O)C2C3/C=C\CCCCC32)cc1C (stereo not drawn)	-7	nt	nt	8085	-1	5.5	-35
CN1CCC(N(C)C(=S)Nc2ccc(F)cc2)CC1	9	20	12	4244	15	3.4	-14
Cc1cccc(C)c1N1CCN(c2ccc3nnc(C(F)(F)F)n3n2)CC1	16	nt	nt	2175	-8	2.1	-8
CC1CCCCN1CC(=O)NCc1ccc2c(c1)OCO2 (stereo not drawn)	11	4	7	4483	-9	3.1	-2
O=C(N/C(=C\c1cccc([N+](=O)[O-])c1)C(=O)N(CCO)CCO)c1ccco1	6	2	-4	3392	nt	1.7	-4
CCOc1ncccc1C(=O)NNC(=O)c1cccc(S(=O)(=O)N2CCOCC2)c1	5	4	5	nt	nt	0.9	1
Cc1cc(Br)c(OCc2ccc(C(=O)NN=C3CC(=O)CC(C)(C)C3)cc2)c(Br)c1	-8	-6	2	nt	nt	1.9	nt
COc1ccc(CNc2cccc(F)c2)cc1Br	30	3	6	5268	-1	-0.9	-12
Cc1csc(NC(=O)c2ccccc2O)n1	4	nt	nt	2331	-7	4.5	-40
CCc1nnc(NC(=O)CCC(=O)N2CCN(c3cc(C)ccc3C)CC2)s1	6	1	-3	4324	-16	4.2	-9
COc1cc(C(=O)NC(C)c2ccccc2)ccc1OCC(=O)N1CCOCC1 (stereo not drawn)	6	6	0	?	nt	1.9	-9
C[C@@H]1C=C(C(=O)N2CCN(Cc3ccccc3)CC2)O[C@H](OCc2ccc(CO)cc2)C1	nt	nt	nt	3877	0	nt	1
N#Cc1c(F)cccc1N1CCC(C#N)CC1	16	-4	8	3617	4	5.2	3
Cc1cc(C(=O)CN2C(=O)C(=O)N(Cc3ccco3)C2=O)c(C)n1CCc1ccc(F)cc1	11	10	7	3849	nt	2.3	-5
NS(=O)(=O)c1ccc(CCNC(=O)c2cccc([N+](=O)[O-])c2)cc1	14	8	0	3629	8	5.8	-11
CC12CN3CC(C)(CN(C1)C3c1ccccc1F)C2 (stereo not drawn)	4	0	-1	4526	-11	0.7	-4
CC(C)(C)OC(=O)CNC(=O)c1[nH]cnc1C(=O)NC(CCCCNC(=O)OC(C)(C)C)C(=O)OC(C)(C)C (stereo not drawn)	3	-2	-7	nt	nt	4.8	nt
O=[N+]([O-])c1c(NCCO)cc(N2CCCCCC2)c2nonc12	7	5	-4	3454	2	3.2	-22
Cc1ccc(S(=O)(=O)NC(C(=O)N2CCOCCOCCOCC2)C(C)C)cc1 (stereo not drawn)	1	9	-3	3967	-4	4.6	3
CN1CCN(c2nc(-c3ccc(Br)cc3)nnc2-c2ccccc2)CC1	-2	0	3	3710	4	1.4	-18
CC(C)CN(C(=O)CCCSc1nc2ccccc2[nH]1)c1c(N)n(Cc2ccccc2)c(=O)[nH]c1=O	8	2	-10	?	2	4.5	-8
CCCOc1ccccc1C1NC(=O)NC(C)=C1C(=O)OCCOC(C)C (stereo not drawn)	3	16	8	10228	-4	6.0	-16
CSc1ccc(Cl)c(C(=O)NCCOc2cc(C)ccc2C(C)C)c1	99*	-1	9	7055	2	97*	-21
COC(=O)c1nn(-c2ccccc2)nc1-c1nn(-c2ccccc2)nc1C(=O)OC	-10	3	-6	3717	-1	5.6	-25
Cc1ccc(NC(=O)CSc2nnc(Cc3ccccc3)o2)c(C)c1	6	11	13	2459	-6	2.2	-11
COc1ccccc1-c1nc(S(=O)(=O)c2ccccc2)c(N2CCOCC2)o1	4	2	4	5722	5	2.5	-27
Cc1c(Cl)cccc1NC(=O)Nc1cc(C(C)(C)C)nn1C	6	10	9	nt	3	2.8	-7
CCOc1ccc(NC(=O)Cn2nnc(-c3ccccc3NC(=O)C3CC3)n2)cc1	-2	4	8	2757	0	3.0	-8
O=C(CCCn1c(=O)[nH]c2ccsc2c1=O)NC1CCCCC1	3	-3	13	3540	-11	4.9	-3
CCCCCC(=O)Nc1cccc(C2=NOC3(C2)CC(C(N)=O)N(C(=O)CCCCC)C3)c1 (stereo not drawn)	3	23	9	nt	nt	5.1	nt
CCc1ccc(NC(=O)C(C)OC(=O)c2cccc(S(=O)(=O)N3CCc4ccccc4C3)c2)cc1 (stereo not drawn)	-2	11	2	2780	-7	-0.9	-7
OC(COc1ccc(Cl)cc1)CSc1ccccn1 (stereo not drawn)	10	5	9	3569	-3	3.2	-35
Cc1cc(Cl)c2oc(C(=O)NCC(C)(C)N3CCOCC3)c(C)c2c1	3	20	22	5585	10	3.8	-21
Cc1cc(C(=O)Nc2nc(C)c(C(=O)N(C)C)s2)ccc1[N+](=O)[O-]	-2	-2	4	2638	-2	2.5	-62
Cc1ccc(Cl)cc1NC(=S)N(Cc1ccco1)C(C)c1cccs1 (stereo not drawn)	-2	-7	-10	4563	11	3.1	-11
O=C(C=Cc1ccc(O)c(O)c1)OCCc1ccccc1	4	10	0	nt	nt	4.4	nt
O=C(CSc1nnc(-c2cccs2)n1Cc1ccccc1)N1CCc2ccccc2C1	-10	nt	nt	2500	-6	-4.5	-26
Cc1cccc(C(=O)OCC(=O)NCCNC(=O)COC(=O)c2cccc(C)c2C)c1C	1	5	14	6199	1	4.0	-4
CC(C)c1ccc(NC(=O)C2CC(=O)N(C3CCCC3)C2)cc1 (stereo not drawn)	3	-11	8	6203	-3	-2.6	0
C/C(=N\O)C1(C)N(O)C(C)(C)C(c2ccc(F)cc2)=[N+]1[O-] (stereo not drawn)	nt	nt	nt	2872	-9	nt	-15
O=C(O)c1ccc(S(=O)(=O)Nc2ccc(O)c(Sc3nc4ccccc4s3)c2)cc1	6	2	2	3937	-4	5.6	-57
Cc1ccc2ncnc(Nc3cccc(C(=O)O)c3)c2c1	4	5	5	2512	4	2.0	-4
CCOC(=O)C1=C(COC(=O)c2ccc(OC)c(S(=O)(=O)N3CCOCC3)c2)NC(=O)NC1C (stereo not drawn)	2	18*	53*	3952	nt	1.3	-17
CN(C)S(=O)(=O)c1ccc(N2CCCC2)c(C(=O)Nc2nc(-c3ccc(F)cc3)cs2)c1	-10	-15	3	2448	-12	-6.2	10
COc1ccc(-c2csc(N3CCSCC3)n2)cc1	13	5	5	3578	-2	7.2	nt
COC(=O)C(CC(C)C)NC(=O)c1ccc([N+](=O)[O-])cc1 (stereo not drawn)	15	nt	nt	4087	4	0.8	-11
Cc1cc(C)c(S(=O)(=O)N2CCOCC2)c(C)c1N(C)S(=O)(=O)c1ccccc1	6	7	-1	5869	-1	6.8	-8
O=C1CN(O)C(c2ccccc2)=c2cc(Cl)ccc2=N1	10	3	8	3291	2	3.6	-13
C=CCNC(=O)/C(C#N)=C/c1ccc2c(c1)OCCO2	2	6	-4	4452	1	-1.7	-23
COc1ccc(CCNCCN2CCOCC2)cc1	3	-5	-7	3713	-8	2.1	-19
COc1ccccc1OC(C)C(=O)N1CC(=O)Nc2ccccc21 (stereo not drawn)	6	0	-11	3993	-6	7.9	-7
COc1ccccc1C(=O)OCC#CCSc1nnc(-c2cccc3ccccc23)o1	-6	25	21	3064	nt	12	-26
Nc1ccc2[nH]c(=S)[nH]c2c1	3	17	7	3460	nt	3.4	-11
Following part.
SMILES	ugtP null kill	Mtb hypoxia rep	Mtb hypoxia rep growth	Bead autofluor	BJeLR viability	Sa RN4220 lethal	PrP UTR inh
CC1SC(C)C(=O)N(CC(=O)NC2CCCCC2)C1=O (stereo not drawn)	-4	-2	3	4242	nt	3.1	-8
O=C(C1CC(=O)N(c2ccccc2)C1)N1CCN(c2ccccc2)CC1 (stereo not drawn)	1	0	-10	5685	7	-0.6	-14
CC(C)(C)NNC(=S)Nc1cccc(C(F)(F)F)c1	5	7	-2	nt	-15	-0.6	-10
CN(C(=O)CN1C(=O)/C(=C/c2ccccc2Cl)SC1=S)C1CCS(=O)(=O)C1 (stereo not drawn)	2	18	10	6295	-1	7.3	-7
CCc1sc(C(=O)NCc2cc(C)n(C)n2)cc1Br	0	8	1	8516	4	0.8	nt
CCN(CC)S(=O)(=O)c1ccc2[nH]cc(C(=O)NCCc3ccccc3)c(=O)c2c1	-2	7	14	3268	18	8.2	-15
COC(=O)C1=NN(C(=O)c2ccc(C)cc2)C(O)(c2ccc(Cl)cc2)C1 (stereo not drawn)	-3	12	-1	nt	-6	13	nt
Cc1ncc(CO)c2cc(C(=O)Nc3ccccc3Cl)c(=Nc3cccc(C(N)=O)c3)oc12	-10	-4	9	3577	19	10	-63
O=C(NN=Cc1ccc2c(c1)OCO2)c1sc2cc(Cl)ccc2c1Cl	2	4	6	nt	nt	2.1	nt
COc1ccccc1/C=C/C(=O)Nc1ccc2c(c1)CCC2	-10	8	8	2372	1	8.8	-146
Cn1c2c(c(=O)n(C)c1=O)CN(Cc1ccc3c(c1)OCO3)CN2	5	nt	nt	4714	8	2.2	-7
NC(=O)c1ncc(C(F)(F)F)cc1Oc1cccc(C(F)(F)F)c1	-10	nt	nt	4559	1	-1.9	-16
COCCCn1c(SCC(=O)Nc2cccc(C)n2)nnc1-c1ccco1	3	nt	nt	3694	6	18	-16
CC(=O)NS(=O)(=O)c1ccc(NC(=O)CSc2ccc(C)cc2)cc1	16	2	1	4530	0	8.5	1
CSc1nsc(SC)c1C(=O)NCCNS(=O)(=O)c1ccc(C)cc1	-3	8	6	3371	-8	5.7	-10
COc1ccccc1NS(=O)(=O)c1cc(NC(=O)C2CCC2)ccc1N1CCCCC1	3	-6	2	4590	-12	-8.9	nt
S=C(Nc1ccc(-c2nc3ccccc3[nH]2)cc1)Nc1cccnc1	-4	-11	2	6239	-4	-3.0	-63
Clc1ccc(-n2nnc(-c3cccnc3Cl)n2)cn1	13	13	16	2862	-8	5.3	-34
O=C1CCC2CCCCC2(O)O1 (stereo not drawn)	1	-1	9	nt	6	3.0	-6
CCN(C(=O)C12CC3CC(CC(C3)C1)C2)C1CCS(=O)(=O)C1 (stereo not drawn)	8	2	-7	8472	8	3.5	-8
CC(Sc1nc(-c2ccccc2)cs1)C(=O)Nc1ccc(Cl)cn1 (stereo not drawn)	1	0	6	2028	-11	-14	-30
C=CCN(CC=C)S(=O)(=O)c1ccc2nc(NC(=O)C3CCCO3)sc2c1 (stereo not drawn)	5	1	0	1933	4	1.5	-11
CCOC(=O)CC(=O)CSc1nc2ccc(C)cc2cc1C#N	16	11	10	10174	nt	30	-14
CC1=CC2=NC(=O)CC(C)(C(=O)N(CC(=O)NC(C)C)C3CCCC3)N2C=C1 (stereo not drawn)	7	4	5	nt	-6	1.0	nt

Given as labelled records: entries from further up
CCN(CC(=O)NCc1ccc(Cl)cc1)Cc1cc(=O)n2ccsc2n1
  ugtP null kill: 0
  Mtb hypoxia rep: 5
  Mtb hypoxia rep growth: -6
  Bead autofluor: 4081
  BJeLR viability: nt
  Sa RN4220 lethal: -0.8
  PrP UTR inh: -19

Cc1cc(C)c(S(=O)(=O)N2CCOCC2)c(C)c1N(C)S(=O)(=O)c1ccccc1
  ugtP null kill: 6
  Mtb hypoxia rep: 7
  Mtb hypoxia rep growth: -1
  Bead autofluor: 5869
  BJeLR viability: -1
  Sa RN4220 lethal: 6.8
  PrP UTR inh: -8

CC(C)(C)OC(=O)CNC(=O)c1[nH]cnc1C(=O)NC(CCCCNC(=O)OC(C)(C)C)C(=O)OC(C)(C)C (stereo not drawn)
  ugtP null kill: 3
  Mtb hypoxia rep: -2
  Mtb hypoxia rep growth: -7
  Bead autofluor: nt
  BJeLR viability: nt
  Sa RN4220 lethal: 4.8
  PrP UTR inh: nt
